Anthrax LT inh – qHTS Assay for Anthrax Lethal Toxin Internalization; Potency, µM (highest dose often 40 µM), for inactives: at the highest dose activity change, negative = inhibition, actives largely listed as inhibitors; AID 912, 2007; Cells, anthrax lethal toxin internalization, FRET ratio (460/530); 70,000 compounds, 0.67% hits; active = well fitted falling ratio curve with the 530 nm signal flat; inconclusive = other ratio curves, or a change in one channel alone; inactive = flat curves in the ratio and both channels; the % refers to the ratio; further: on the % scale 0 is the no-effect control and ±100 the full control effect; nearly all actives have a fitted effect of over 50% in size; tested in ME-180 cells; beta-lactamase reporter
SmPrx2 inh – Schistosoma Mansoni Peroxiredoxins (Prx2). AID 448, 2006. Potency, µM. S. mansoni Prx2 activity coupled to TGR/GSH (TGR is thioredoxin glutathione reductase), NADPH fluorescence loss, qHTS; some inactives read as strong as hits. 65,000 compounds, 0.07% hits. Schistosoma mansoni peroxiredoxin 2 (Prx2); active means full or partial inhibition curve with a strong effect at the top dose; inconclusive means weaker partial or single-point curve; inactive means no accepted curve; further: series up to 57 µM; many of its hits are not listed in these tables
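Purified S. mansoni TGR and Prx2 in pH 7.4 phosphate buffer with EDTA and Tween-20 were preincubated with compounds for 15 min. Further NADPH/GSH was added, then a 2.5 mM H2O2 aliquot initiated turnover, followed kinetically by NADPH fluorescence.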
Numbers without * were called inactive; ? = inconclusive; · = no result given; & = joins results of further samples; [ ] = another dose, or the depositor's remark. Potency means the concentration at half of the fitted maximal effect.

Start of the listing, in advance (4 entries):
SMILES	Anthrax LT inh	SmPrx2 inh
CC(C)NC(=O)CSc1nc2ccccc2c(=O)n1CCCOC(C)C	10%	>57
C1CC2OC2CC1C1CO1 (stereo not given)	4%	·
CCCSc1nc2c(c(=O)[nH]c(=O)n2C)n1Cc1ccc(C)cc1	·	>57
CCOC(=O)c1csc(NC(=O)c2ccc(S(=O)(=O)N(C)C)cc2)n1	6%	>57

Results, from the first entry:
SMILES	Anthrax LT inh	SmPrx2 inh
CC(C)NC(=O)CSc1nc2ccccc2c(=O)n1CCCOC(C)C	10%	>57
C1CC2OC2CC1C1CO1 (stereo not given)	4%	·
CCCSc1nc2c(c(=O)[nH]c(=O)n2C)n1Cc1ccc(C)cc1	·	>57
CCOC(=O)c1csc(NC(=O)c2ccc(S(=O)(=O)N(C)C)cc2)n1	6%	>57
O=C1CC(N2CCN(Cc3ccc4c(c3)OCO4)CC2)C(=O)N1c1ccccc1 (stereo not given)	-14%	>57
CS(=O)(=O)N1CCC2(CC1)CN(c1ccccc1)C2	10%	>57
Cn1cccc1C(=O)N1CCC2(CCCN(c3cccc(-c4ccccc4)c3)C2)CC1	?	>57
Cc1csc(SCC(=O)Nc2nc3ccccc3s2)n1	-16%	>57
COC(=O)c1cc(-c2c(C)nn(-c3ccccc3)c2C)n[nH]1	3%	>57
CC(=O)Nc1ccc(Nc2nc(C)nc3c2oc2ccccc23)cc1	-1%	>57
COc1ccc(CN2CC(C(=O)NCCC3=CCCCC3)CC2=O)cc1 (stereo not given)	1%	>57
Cc1ccc(NC(=O)c2ccco2)c(NC(=O)c2cccs2)c1	-10%	>57
O=C1CC(C(=O)N2CCN(c3ccc(F)cc3)CC2)CN1CCc1ccccc1 (stereo not given)	10%	>57
CC(=O)c1ccc(OCCCC(=O)N2CCN(S(=O)(=O)c3cccs3)CC2)cc1	?	>57
COc1ccc(C(=O)NCCSCc2ccco2)cc1OC	-8%	·
O=C1c2ccccc2S(=O)(=O)N1Cc1nnc(-c2ccccc2Br)o1	-24%	>57
Cc1nc(N2CCOCC2)c2nc(-c3ccccc3)n(CC(C)(C)CN(C)C)c2n1	-2%	·
CS(=O)(=O)N(CC(=O)N1CCOCC1)Cc1ccccc1	5%	>57
CN(C)C(=O)c1nc(C#N)c(N(C)C)o1	-4%	>57
COc1ccccc1N1CCN(c2cc(=O)n(-c3ccc(Br)cc3)c(=O)[nH]2)CC1	-10%	>57
O=C(NC1CCCCC1)N1CCC(n2cnc3ccccc32)CC1	-9%	>57
CC(C)(C)N1C(=O)Cc2c1nc(N)c1c(N)nc(N3CCCCC3CO)c(C#N)c21 (stereo not given)	?	>57
C/C(=C\C(=O)c1ccc(Br)cc1)N1CCCCC1	-19%	>57
Clc1ccc(C=Nc2ccc3c(c2)Cc2ccccc2-3)c(Cl)c1	?	>57
CCOc1ccc2[nH]c(=O)c(CN(CC3COCCO3)C(=O)c3ccco3)cc2c1 (stereo not given)	-2%	>57
CC(NC(=O)c1ccc(NS(C)(=O)=O)cc1)c1ccccc1 (stereo not given)	8%	>57
O=C(NCc1ccccn1)c1cnc2sccn2c1=O	8%	>57
O=C(CSc1nnc(NC(=O)C2CCC2)s1)Nc1ccc(N2CCOCC2)cc1	3%	>57
c1cnn(-c2nc(N3CCOCC3)nc(N3CCOCC3)n2)c1	?	·
Nc1nnc(SCc2cc3c(cc2Cl)OCO3)s1	6%	>57

2 of these compounds, set out differently.
CS(=O)(=O)N(CC(=O)N1CCOCC1)Cc1ccccc1
  Anthrax LT inh = 5%; SmPrx2 inh = >57
CN(C)C(=O)c1nc(C#N)c(N(C)C)o1
  Anthrax LT inh = -4%; SmPrx2 inh = >57

Following part.
SMILES	Anthrax LT inh	SmPrx2 inh
Cc1ccc2[nH]c(=O)c(CN(CC3CCCO3)C(=O)c3ccco3)cc2c1 (stereo not given)	18%	>57
Cc1cccc(N2C(N)=C(C#N)C(C#N)(C#N)C2c2ccccc2)c1 (stereo not given)	?	>57
Cn1cnnc1SCC(=O)NC(=O)NC1CCCC1	-16%	>57
O=C(NCCCN1CCCC1=O)c1ccc2c(c1)ncn2C1CCCCC1	-2%	>57
O=C(CCSCCC(=O)NCc1ccco1)NCc1ccco1	-13%	·
Cc1c(N)c(=O)n(-c2ccccc2)n1C	0%[3.58 µM]	>57
C=CCn1c(O)c(C(=O)CCCCCC)c(=O)[nH]c1=O	0%	>57
COc1ccccc1NC(=O)N1CCN(c2ccccc2F)CC1	3%	>57
O=C1CC(N2CCC(n3c(=O)[nH]c4ccccc43)CC2)C(=O)N1c1ccc(F)cc1 (stereo not given)	-4%	>57
Cc1cc(C)c(C)c(OCC(=O)NCc2nc(-c3ccccc3)no2)c1	?	>57
CCc1nnc(NC(=O)C2CCN(c3nc(C)cc(C)n3)CC2)s1	?	>57
O=C(NC1CC1)c1c[nH]c2ccc(S(=O)(=O)Nc3cccc(C(F)(F)F)c3)cc2c1=O	-11%	>57
O=C(NCCC1=CCCCC1)C1CCN(S(=O)(=O)c2cnc[nH]2)CC1	-2%	>57
COc1ccc(N2CC(O)=C(c3nc4ccccc4s3)C2=N)cc1	-3%	>57
C[C@H](NC(=O)OC(C)(C)C)c1nnc(SCC(=O)Nc2ccc(Br)cc2)o1	0%	>57

6 of the compounds above, with two lines to a compound:
Each structure is followed by: Anthrax LT inh, SmPrx2 inh
> COc1ccccc1N1CCN(c2cc(=O)n(-c3ccc(Br)cc3)c(=O)[nH]2)CC1
  -10%, >57
> O=C(NC1CCCCC1)N1CCC(n2cnc3ccccc32)CC1
  -9%, >57
> CC(C)(C)N1C(=O)Cc2c1nc(N)c1c(N)nc(N3CCCCC3CO)c(C#N)c21 (stereo not given)
  ?, >57
> C/C(=C\C(=O)c1ccc(Br)cc1)N1CCCCC1
  -19%, >57
> Clc1ccc(C=Nc2ccc3c(c2)Cc2ccccc2-3)c(Cl)c1
  ?, >57
> CCOc1ccc2[nH]c(=O)c(CN(CC3COCCO3)C(=O)c3ccco3)cc2c1 (stereo not given)
  -2%, >57

Further results:
SMILES	Anthrax LT inh	SmPrx2 inh
Cc1ccccc1SCC(=O)NC1CCOC1=O (stereo not given)	8%	>57
CCCC(C)C(=O)Nc1ccc(C(N)=O)cc1 (stereo not given)	5%	·
COc1ccc(NC(=O)N2CCC3(CC2)CCN(S(C)(=O)=O)CC3)cc1	-3%	>57
COc1ccc2c(c1)NC1(O)c3ccccc3C(=O)C21O (stereo not given)	2%	>57
O=c1cc(-c2ccc(O)c(O)c2)oc2cccc(O)c12	?	>57
COc1ccc(Br)cc1-c1noc(-c2ccncc2)n1	8%	>57
CCOC(=O)c1c(NC(=O)CSc2nc3c(c(=O)n(C)c(=O)n3C)n2C(C)C)sc(C)c1C	3%	>57
Cc1ccccc1-n1c(Cn2c(=O)sc3ccccc32)nnc1SCC(=O)NCC1CCCO1 (stereo not given)	10%	>57
CC(C)N(Cc1nc(-c2ccccc2)no1)C(=O)Cc1ccccc1	-21%	>57
CCCCSCCCNC(=O)CS(=O)Cc1nc(-c2cccc(C)c2)oc1C (stereo not given)	3%	>57
O=C(CC1Oc2ccccc2NC1=O)NC1CC1 (stereo not given)	0%	>57
Nc1nonc1-n1nnc(C(=O)c2ccccc2)c1-c1ccccc1	-19%	>57
CC1(C)NC(C)(C)c2nonc2/C1=N\O	4%	·
CC1CCN(C(=O)C2CCN(S(=O)(=O)c3cnc[nH]3)CC2)CC1	10%	>57
Cc1sc2nc(SCC(=O)NCCO)n(C)c(=O)c2c1C	2%	·
CC1CCC(C(=O)O)([C@H](Br)C(=O)O)CC1 (stereo not given in full)	4%[8 µM]	>57
Cc1cc(C)nc(Nc2ccc(N3CCOCC3)cc2)n1	-1%	>57
COC(=O)C(NC=O)C(O)(Cc1ccccc1)C(F)(F)F (stereo not given)	-17%	>57
O=C(O)[C@H](Cc1cnc[nH]1)N1C(=O)c2ccccc2C1=O	-2%[8 µM]	>57
COC(=O)C1(C)NC(c2ccco2)C2C(=O)N(c3ccc(C)cc3)C(=O)C21 (stereo not given)	-10%	>57
COC(=O)c1ccc(OC(=O)C2CC(=O)N(c3cccc(C)c3)C2)cc1 (stereo not given)	0%	>57
Cc1ccc(S(=O)(=O)N2CCN(C(=O)N(C)C)CC2)cc1C	·	>57
O=C(Nc1ccccc1)C1=C(O)CC(c2ccco2)CC1=Nc1ccccc1 (stereo not given)	-2%	>57
Cc1ccc(/C(=C/CN2CCCC2)c2ccccn2)cc1	?	>57&>57&>57
O=C(COc1ccccc1Cl)N(Cc1ccco1)C1CCS(=O)(=O)C1 (stereo not given)	-2%	>57
Cc1nnc(SCCn2c(N(C)Cc3ccccc3)nc3c2c(=O)n(C)c(=O)n3C)s1	·	>57
COc1ccc(OC)c(N/C=C2/CCCCC2=O)c1	-2%	>57
COc1ccc(Cn2nnnc2CN2CCOCC2)cc1	-2%	>57
N#C/C(=C(/O)COC(=O)CCCNC(=O)c1ccc(Cl)cc1)c1nc2ccccc2[nH]1	?	>57
Cc1cc(C)cc(N2CC(C(=O)O)CC2=O)c1 (stereo not given)	·	>57
Cc1ccc(C)c(Cn2c(CO)nc3ccccc32)c1	·	>57
Cc1ncc(CO)c2cc(C(N)=O)c(=Nc3ccccc3)oc12	19%	>57
COC(=O)C(Cc1ccccc1)NC(=O)CSc1nc(N)cc(=O)[nH]1 (stereo not given)	0%	>57
Cn1nnnc1SCC(=O)Nc1ccccc1Cc1ccccc1	-6%	>57
c1ccc(NN(Cc2cnccn2)c2ccccc2)cc1	-5%[8 µM]	>57
COc1ccc(O[C@H]2C=C[C@@H](c3ccccc3)O[C@@H]2CO/N=C(\C)CCN2CCc3nc(-c4ccccc4)c(-c4ccccc4)cc3C2)cc1	4%[1.6 µM]	·
O=C1CCCN1CN(C(=O)c1ccc2c(c1)OCO2)c1cccc(Cl)c1	-2%	>57
C=CCSc1n[nH]c(-c2ccc(OC)cc2)n1	4%	>57
N#CCCCC[N+]12CN3CN(CN(C3)C1)C2	?	>57
CC(C)CC(OC(=O)c1cccs1)C(=O)NCc1ccco1 (stereo not given)	-30%	>57
Nn1c(-c2cccc(Br)c2)n[nH]c1=S	1%	>57
CCN(C(=O)COc1ccccc1)c1nnc(-c2cccnc2)s1	-13%	>57
CCOC(=O)c1nnn(-c2nc(OC)nc(N(C)C)n2)c1-c1ccccc1	9%	>57
Cn1c2ccccc2c2ncn(CCC3=CCCCC3)c(=O)c21	?	>57
CCOc1ccc(NC(=O)CSc2nnc(C3CC3)n2N)cc1	7%	>57
COc1ccc(-c2nnc(N(C)C(=O)c3cccnc3)s2)cc1	12%	>57
O=C(NCc1ccc2c(c1)OCO2)c1ccc2snnc2c1	-7%	>57
O=C(CS(=O)CC(=O)N(CC(=O)NC1CCCC1)C1CCCCC1)Nc1ccc(F)cc1 (stereo not given)	-6%	>57
CCOC(=O)c1ccc2nc3c(cc2c1)CCS3	-3%	>57
CCCCOc1ccc(NC(=O)CSCC(=O)OCC)cc1	-3%	>57
CC(C)n1c(Nn2cnnc2)nc2ccccc21	2%	>57
C=CCc1c(C)[nH]c(=S)c(C#N)c1C	?	>57
COc1ccccc1N1CCN(C(=O)c2ccc3c(=O)n(Cc4ccco4)c(=S)[nH]c3c2)CC1	11%	>57
CCOc1ccc(-c2nc(CSCC(=O)N3CCN(c4cccc(OC)c4)CC3)c(C)o2)cc1	?	>57
Cc1cc(C#N)c(C)n1-c1cc(C(F)(F)F)ccc1N1CCOCC1	?	>57
S=c1[nH]nc(-c2ccc3ccccc3n2)o1	14%	>57
OCCN(CO)CO	-2%[8 µM]	>57
O=C(O)C[C@H](Cc1ccccc1)C(=O)O	1%[8 µM]	>57
NCCC1([N+](=O)[O-])CCNCC1	?	>57
CCOC(=O)CCc1c(C)c2c(C)nn(-c3ccccc3)c2[nH]c1=O	-9%	>57

Continued:
SMILES	Anthrax LT inh	SmPrx2 inh
CCCOc1ccc(C2C(C(=O)OC)=CN(CCOC)C=C2C(=O)OC)cc1	?	·
COc1cc(NC(=O)c2cc(-n3cnnc3)ccc2Cl)cc(OC)c1	?	>57
O=C1CCC(=O)N1OCCOc1ccc2c(c1)CCC2	-7%	>57
COc1ccc(N2CCN(C(=O)CSc3nc4cc(OC)c(OC)cc4cc3C#N)CC2)cc1	-2%	>57
O=C(Nc1ccccn1)C1CCN(S(=O)(=O)c2cccs2)CC1	0%	>57
CC(=O)c1coc2ccc(OCCN3CCCCC3)cc12	4%	·
CCC(=NCCc1ccccc1)C1=C(O)CCC1=O	0%	·
COc1ccc(OCCNC(=O)c2ccccc2OCC(=O)N2CCCCC2)cc1	?	>57
COC1=Cc2c(ccc3ccc(=O)oc23)OC1(C)C	?	·
CC(=O)Nc1ccc(S(=O)(=O)NCC2CCC(C(=O)NCCC(C)C)CC2)cc1 (stereo not given)	-8%	>57
CCOC(=O)C(CC)(CCC(=O)O)c1csc(N)n1 (stereo not given)	7%	·
O=C(C1CCC(CNS(=O)(=O)c2cccc3cccnc23)CC1)N1CCCC1 (stereo not given)	-8%	>57
CCOc1ccc(N=C2SC(C(=O)O)CC(=O)N2C)cc1 (stereo not given)	0%	>57
CCc1ccc(OC(=O)c2ccn(CC)n2)cc1	?	>57
Cn1c(SCc2ccccc2)nnc1-c1cccs1	·	>57
COc1ccccc1N1CCN(CCC(=O)Nc2ccc3c(c2)OCO3)CC1	-6%	·

Compound activity (PubChem)

The list is partial; the hit share may differ from the screen's.
